High-throughput results: PubChem, several laboratories
RanGTP-Imp inh = inhibitors of RanGTP-importin-beta interaction, primary screen, biochemical, FRET, CFP-Ran, YFP-importin-beta, homogeneous; hit rate 1.1% among 300,000; inhibition, % (concentration not given with the values); cell-free CFP-Ran/YFP-importin-beta FRET ratio;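 active = most replicates above 15%; inconclusive = exactly half above 15%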;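 note: 0% = DMSO wells and 100% = Ran loaded with GDP instead of GTP; wells of about 40 µL received 100 nL stock; the first replicate is given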
Beta cell apopt = beta cell apoptosis inhibition; INS-1E cytokine-induced death, ATP luminescence, 48 h; percent of positive-control rescue, neutral wells zero; protection from apoptosis, % (no concentration beside the values); hit rate 0.8% among 300,000;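 active = all replicates at 75% or more, or half of them and the mean; inconclusive = half reach 75% but not the mean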;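 note: 0% = cytokine-treated negative control wells and 100% = positive control rescue; higher means more ATP so stronger rescue from cytokine killing; wells of about 40 µL received 100 nL stock; the first replicate is given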
Calb FLC = affects C. albicans growth with fluconazole | C. albicans CaCi-2 (fluconazole-resistant clinical isolate) + fluconazole, Alamar Blue growth, 48 h | growth inhibition, % (no concentration beside the values) | hit rate 0.57% among 300,000 | AID 1979;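 active = most replicates above 75%; inconclusive = exactly half above 75%; inactive = most below 75%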;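 note: all wells also contain fluconazole at 8 µg/ml as a sub-toxic cotreatment; 0% = median of DMSO wells and 100% = median of geldanamycin control wells; wells of about 8 µL received 7.5 nL stock; the first replicate is given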
T cruzi repl = blocks replication of Trypanosoma cruzi; inhibition, % (no concentration beside the values); T. cruzi beta-gal in NIH3T3, luminescence, 90 h; hit rate 1.4% among 300,000;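 active = mean inhibition across valid replicates above about 55%, limit read from the data; inconclusive = mean below that limit but half or more replicates reach it; inactive = mean below it, under half of replicates reach it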;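 note: signal also drops with host cell toxicity which is not excluded here; 0% = plate median of DMSO wells and 100% = zero luminescence signal; higher percent means less beta-gal luminescence so fewer parasites; stock transfer was 50 nL into about 50 µL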
MLL AF4-AF9 inh = blocks AF4 peptide binding to human AF9; P42568; AlphaScreen, biotin-AF4 peptide binding to FLAG-AF9; inhibition, % at 10 µM; hit rate 0.47% among 350,000;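 active = every replicate reaching a set inhibition limit, whatever the replicate mean, cut at about 25% in these data; inconclusive = mean inhibition reaches that limit but some replicates miss it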;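 note: 0% = plate neutral control median and 100% = total signal loss; the record names both 10 and 1 µM as test concentration; the first replicate is given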
Target sequence (P42568 whole entry, looked up): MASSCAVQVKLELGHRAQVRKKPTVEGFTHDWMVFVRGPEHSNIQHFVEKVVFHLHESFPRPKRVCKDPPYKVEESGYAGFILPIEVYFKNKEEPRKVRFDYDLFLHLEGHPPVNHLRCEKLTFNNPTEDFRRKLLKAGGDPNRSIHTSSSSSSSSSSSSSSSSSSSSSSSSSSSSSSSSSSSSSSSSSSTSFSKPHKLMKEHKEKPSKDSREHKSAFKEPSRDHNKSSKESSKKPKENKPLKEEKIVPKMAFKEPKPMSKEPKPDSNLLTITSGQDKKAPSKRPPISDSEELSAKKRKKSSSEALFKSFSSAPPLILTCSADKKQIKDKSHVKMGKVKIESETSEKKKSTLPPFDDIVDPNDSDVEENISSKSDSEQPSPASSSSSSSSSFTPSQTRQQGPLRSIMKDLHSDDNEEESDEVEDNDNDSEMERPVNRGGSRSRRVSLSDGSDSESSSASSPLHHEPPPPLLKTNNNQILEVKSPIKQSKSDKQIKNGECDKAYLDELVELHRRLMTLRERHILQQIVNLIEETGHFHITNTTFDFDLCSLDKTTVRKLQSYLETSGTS
Vif TR-FRET = HIV-1 Vif–A3G interaction blockers – biochemical, TR-FRET, GST-Vif 1-94, biotin-A3G peptide, dose response retest, primary screen (AID 1117319) | TR-FRET GST-Vif / biotin-A3G peptide binding; higher % means a stronger effect; test concentration not given here; strong numbers were not always called active | inhibition, %; hits with a dose series show IC50 in µM | hit rate 0.57% among 260,000;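 active = above the screen mean plus three standard deviations and confirmed in dose response; inconclusive = results disagree or hit not tested in dose response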;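 note: Vif residues 1-94 fused to GST binding biotinylated APOBEC3G peptide 110-148; 0% = full assay without inhibitor and 100% = GST in place of GST-Vif; retest series ran down from 100 µM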
Bfl-1 A1 inh = inhibitors of the anti-apoptotic protein A1, read as caspase activation | MEF A1-2A-BIM cells, Caspase-Glo 3/7 luminescence, 3 h; percent of clofoctol response, vehicle zero | caspase activation, % (no concentration beside the values) | hit rate 0.066% among 330,000;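 active = over half of replicate activation scores above 10%, or exactly half above 10 with the replicate mean above 10; inconclusive = replicate mean below 10 yet half the replicates above 10; inactive = over half of replicates below 10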;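 note: wells of about 30 µL received 50 nL stock; many hits fall short of the cut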
LANA-H2B inh = blocks KSHV LANA binding to histone H2A/H2B | cell-free LANA-H2A/H2B peptide, fluorescence polarization | inhibition, % (no concentration beside the values) | hit rate 0.6% among 320,000 | AID 2629; in the data active = inhibition mostly above about 10%, no sharp cut-off; inactive = mostly below about 6.7%;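 note: stock transfer was 7.5 nL into about 10 µL; 0% = median of vehicle wells and 100% = median of positive control wells; one replicate is shown; the record names a cut of 25% in any replicate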
The depositor's hits bear a star; ? = inconclusive; . = not tested or not shown; & = joins results of further samples.

SMILES | RanGTP-Imp inh | Beta cell apopt | Calb FLC | T cruzi repl | MLL AF4-AF9 inh | Vif TR-FRET | Bfl-1 A1 inh | LANA-H2B inh
O=C(N/N=C/c1cccnc1)c1ccc2ccccc2c1O | . | 3 | 17 | . | 0.2 | 8% | -0.4 | 2.1
COc1ccc(OCC(O)CNS(=O)(=O)c2cccs2)cc1 (stereo not drawn) | 0.2 | -3 | -7 | -2 | 3.1 | -4% | -0.1 | 2.1
COCCNC(=O)/C(C#N)=C/c1ccc(OCc2ccc(F)cc2)cc1 | 8.8 | -2 | 3 | 3 | -1.3 | -1% | -1.3 | -1.9
CCOc1ccc(C2C=C(c3ccc(C)cc3)Nc3nnnn32)cc1 (stereo not drawn) | -2.4 | 0 | 3 | -14 | . | 18% | -0.2 | 6.3
O=C(c1ccc(Sc2ccccc2)c([N+](=O)[O-])c1)N1CCOCC1 | 2.2 | 0 | 43 | 4 | 4.1 | 1% | -1.4 | -0.7
O=C(Nc1ccc(NC(=O)c2cccs2)cc1)c1cccs1 | -0.2 | 0 | ? | 12 | 11 | . | -3.1 | 3.6
CN(NC(=O)C1CC(=O)N(c2ccccc2)C1)C1=NS(=O)(=O)c2ccccc21 (stereo not drawn) | 1.9 | -5 | -9 | -14 | -2.6 | 15% | -0.1 | -2.6
CCOC(=O)c1c(-c2ccccc2)cn2ccccc12 | -2.6 | -3 | 24 | 6 | . | ? | -0.2 | 5.4
O=C(CCNC(=O)C1CCN(S(=O)(=O)c2ccccc2)CC1)NCc1ccncc1 | 1.9 | 0 | 5 | -5 | -0.3 | . | 2.9 | -0.6
COc1ccc2nc(SCC(=O)NCC(F)(F)F)[nH]c2c1 | 0.7 | -2 | -7 | -16 | 1.4 | -5% | -0.2 | -2.6
CCOC(=O)N1CCN(c2ncnc3c2oc2nc(C(C)C)c4c(c23)CCC4)CC1 | -2.0 | -14 | ? | -5 | . | 4% | 0.1 | -2.4
COCCCNC(=O)CN1C(=O)/C(=C\c2ccc(C)cc2)Sc2ccccc21 | -0.3 | -5 | -15 | -12 | . | 0% | -1.6 | 2.1
Cc1ccc(NC(=O)CSCC(=O)Nc2ncc3c(n2)CC(c2ccco2)CC3=O)cc1 (stereo not drawn) | -16 | -8 | 7 | -17 | . | ? | -0.5 | -4.9
Cc1cccc(-c2cc(C(=O)N/N=C/c3cccnc3)c3ccccc3n2)c1 | 0.0 | 4 | -6 | 16 | 12 | . | 0.1 | -4.2
Cc1ccc(S(=O)(=O)N[C@H](C(=O)N2CCC3(O)CCCCC3C2)c2ccccc2)cc1 (stereo partly drawn) | 0.1 | -2 | 1 | 9 | . | -5% | -0.5 | 2.2
CC(=O)n1c2ccccc2c2ccccc21 | 0.4 | . | 4 | -7 | . | 32% | 0.0 | -1.4
CCC(C)NC(=O)CSc1nc2ccsc2c(=O)n1NC(=O)c1ccccc1 (stereo not drawn) | -0.5 | -1 | 4 | -16 | . | 1% | . | -0.4
Cc1nc2ccccc2n1S(=O)(=O)c1ccc(S(=O)(=O)N2CCCCCC2)cc1 | -0.3 | -3 | -19 | 0 | . | 0% | 0.3 | 0.3
CCOc1ccccc1N1CCN(CC(=O)Nc2ccnn2C2CCCC2)CC1 | . | -2 | . | . | 0.2 | . | -0.2 | -3.1
CCSc1cc(N2CC(C)OC(C)C2)nc(-c2ccccc2Cl)n1 (stereo not drawn) | 7.9 | 1 | -3 | 8 | . | -4% | -0.3 | -6.6
CN/C(=C\[N+](=O)[O-])NCCSCc1csc(CN(C)C)n1 | -0.1 | 4 | . | 0 | -0.2 | . | 0.2 | -5.1
CCOC(=O)c1ccc(NS(=O)(=O)c2c(C)n[nH]c2C)cc1 | . | -11 | . | . | -1.1 | -4% | 1.4 | 7.8
CC(=O)Cc1cc(=O)c2c(C)cc(O)c(C3OC(CO)C(O)C(O)C3O)c2o1 (stereo not drawn) | 1.4 | . | 4 | -4 | -0.5 | . | ? | 0.7
Cn1cc(SCC(=O)NCc2ccc(F)cc2)c2ccccc21 | 4.5 | 0 | 34 | 0 | -1.5 | . | 0.8 | 2.3
CCc1ccc2nc3c(c(C(=O)O)c2c1)CCC3 | 1.7 | 0 | -4 | 2 | . | 23% | 0.1 | -0.4
The list goes on:
SMILES | RanGTP-Imp inh | Beta cell apopt | Calb FLC | T cruzi repl | MLL AF4-AF9 inh | Vif TR-FRET | Bfl-1 A1 inh | LANA-H2B inh
N#C/C(=C\c1ccc([N+](=O)[O-])cc1)c1nc(C2CC2)cs1 | -7.2 | -7 | 12 | 28 | . | 1% | -0.9 | 2.4
Cn1ncc(Cl)c1C(=O)N1CCN(S(=O)(=O)c2cccs2)CC1 | 4.5 | -4 | 18 | -4 | -1.8 | . | 0.9 | 2.3
C/C(=N\NC(=O)c1ccc(N2CCCC2=O)cc1)c1ccncc1 | -0.5 | -2 | 11 | -8 | -0.7 | 1% | 0.4 | -1.3
CCC(C(=O)NC1CCCC1)N(Cc1cccs1)C(=O)Cn1nnc(-c2ccc(OC)c(OC)c2)n1 (stereo not drawn) | ? | 14 | 23 | 19 | . | -1% | -0.2 | -5.6
CC(C)N(C(=O)COC(=O)[C@@H]1CC(O)CN1S(=O)(=O)c1ccc(C(C)(C)C)cc1)C(C)C (stereo partly drawn) | 11 | 1 | -4 | 0 | -1.9 | . | 0.7 | 4.7
CCC1=Nc2cc(C(=O)NCCN3CCOCC3)ccc2Sc2ccc(C)cc21 | 0.0 | 3 | -3 | 14 | -0.8 | . | -0.5 | 5.1*
O=C(c1ccc([N+](=O)[O-])cc1)N1CCSC1c1ccccc1Cl (stereo not drawn) | -0.7 | 1 | -5 | 5 | -3.8 | -2% | 0.3 | 4.8
Nc1cc(OCC(F)(F)F)cc(OCC(F)(F)F)c1 | -3.3 | -17 | 6 | -41 | -2.1 | 3% | -0.1 | 0.7
Cc1cccc(N2C(=O)c3ccc(C(=O)Nc4c[nH]c(=O)[nH]c4=O)cc3C2=O)c1 | 3.4 | -4 | -6 | 6 | -0.6 | -1% | -0.3 | -0.1
Cc1ccc(S(=O)(=O)/N=C(\c2ccc(F)cc2)n2c(C)nc3ccccc32)cc1 | -0.1 | -9 | -1 | -15 | . | 1% | -0.6 | 0.0
O=C(CSc1nc2ccccc2[nH]1)Nc1ccc2c(c1)CCC2 | -3.4 | -2 | -13 | -1 | -1.6 | ? | 0.0 | -6.0
CCCCC[n+]1ccn(-c2nc3ccccc3nc2[N-]S(=O)(=O)c2ccc(C)cc2)c1 | 6.5 | 9 | 0 | 5 | . | 2% | 0.3 | 2.1
CC(Oc1cccc(Cl)c1)C(=O)Nc1ccc([N+](=O)[O-])cn1 (stereo not drawn) | ? | . | -4 | 8 | . | 0% | 0.3 | 0.0
COC(=O)c1ccc(CSc2ncnc3c2sc2nc(N4CCOCC4)c4c(c23)CCCC4)o1 | 5.9 | 2 | 3 | 5 | . | -445% | 1.5 | 3.5
CCOC(=O)N1CCN(C(=O)Nc2ccc3nc(C)c(C)nc3c2)CC1 | -1.8 | -2 | 4 | -6 | . | ? | -0.6 | -5.8
CC1(C)CC(=O)C=C(c2cccc(Br)c2)C1 | . | -1 | . | . | -25 | . | 0.8 | 3.9
COc1ccc(C(=O)CSc2cc(C)nc3nc(C)nn23)cc1OC | 1.6 | -4 | -7 | 10 | . | -5% | -1.0 | -2.1
O=C(NCCCc1ccccc1)C(=O)c1c[nH]c2ccccc12 | 0.9 | . | -2 | 10 | -4.2 | 0% | -0.7 | -1.5
COc1ccc2c(c1)c(CC(=O)OCC(=O)O)c(C)n2C(=O)c1ccc(Cl)cc1 | 1.4 | . | . | -12 | -4.8 | 4% | . | .
C=CCNC(=S)NNC(=O)c1cc(O)ccc1O | -4.0 | 0 | -4 | -6 | -4.5 | 18% | -0.1 | -2.0
Oc1ccc(Nc2nc(-c3ccc4ccccc4c3)cs2)cc1 | -5.2 | 84* | 12 | -3 | . | 4% | 0.0 | -3.4
Cc1cccc(N(CC(N)=O)C2SC(=O)N(c3ccccc3)C2=O)c1 (stereo not drawn) | 2.8 | -1 | 18 | -10 | . | 0%&-8% | 0.2 | -1.8
COc1ccccc1N1CCN(C(=O)c2cc3c(s2)CCC3)CC1 | -3.6 | -1 | ? | 0 | . | ? | 0.0 | 2.2
Cc1cc(C)nc(SCC(=O)OC(C)C(=O)Nc2ccccc2)n1 (stereo not drawn) | 4.0 | -6 | 0 | -12 | -0.5 | . | 0.6 | 1.1
O=C(Cc1ccsc1)Nc1ccc2c(c1)OCO2 | . | -8 | . | . | -1.0 | . | -2.2 | 0.3
Continuation:
SMILES | RanGTP-Imp inh | Beta cell apopt | Calb FLC | T cruzi repl | MLL AF4-AF9 inh | Vif TR-FRET | Bfl-1 A1 inh | LANA-H2B inh
CC(=O)N1c2ccc(S(=O)(=O)N3CCC(C(=O)NC4CCCCC4)CC3)cc2CC1C (stereo not drawn) | -1.5 | 2 | 21 | 13 | 3.5 | . | 0.6 | 0.8
Cc1cc(C)nc(SCc2cc(=O)c(OC(=O)c3ccc(Cl)c([N+](=O)[O-])c3)co2)n1 | 2.1 | 8 | -8 | 4 | . | 31% | 1.3 | -2.8
CCCCN(CC)CCNC(=O)C1c2cc(OC)c(OC)cc2C(=O)N2CCc3ccccc3C12 (stereo not drawn) | -9.3 | -9 | -6 | -5 | . | 14% | -0.4 | -1.8
COc1ccc(C(=O)NCCCN=C2NS(=O)(=O)c3ccccc32)cc1 | 2.4 | -6 | -4 | 3 | 0.4 | . | 0.2 | -14
COCCCN(C(=O)c1cccnc1SC)c1c(N)n(Cc2ccccc2)c(=O)[nH]c1=O | 3.0 | -1 | 10 | -3 | . | -7% | 1.3 | -1.5
Cc1cccc(S(=O)(=O)Nc2nc3ccccc3nc2NCC2CCCO2)c1 (stereo not drawn) | 0.7 | -7 | 1 | -11 | -12 | 23% | 0.2 | -1.4
CCn1cc(/C=C(\NC(=O)c2ccccc2)C(=O)N2CCOCC2)c2ccccc21 | 3.2 | . | 20 | -7 | 1.9 | . | . | .
Oc1ccccc1Nc1ncnc2c1oc1ccccc12 | -0.3 | 2 | 5 | 0 | . | -3% | -0.9 | -0.9
CCOC(=O)C1CCCN(S(=O)(=O)c2ccc3c(c2)N(C)C(=O)CC(=O)N3C)C1 (stereo not drawn) | 0.7 | -3 | 5 | -13 | -0.5 | -4% | -0.5 | -4.8
CC(=O)Nc1ccc(NS(=O)(=O)c2ccc(Cl)s2)cc1 | 0.8 | -1 | -11 | -5 | -0.1 | 31% | 0.2 | 3.9
NC(=O)c1ccc(C(=O)c2ccc([N+](=O)[O-])cc2)cc1 | 0.1 | -2 | -3 | 3 | . | 1% | 0.4 | -0.2
O=C(CCCn1c(=O)oc2ccccc21)NC1CCCCCC1 | 2.3 | -6 | -12 | 6 | . | . | -0.7 | -7.4
CC(C)N1CCC(N2CCN(CCCc3ccccc3)CC2CCO)CC1 (stereo not drawn) | -7.3 | -9 | -1 | -16 | 2.4 | . | 0.0 | 3.3
N#CC1=C(Nc2ccccc2Cl)SC(c2ccccc2O)NC1=O (stereo not drawn) | 4.3 | 2 | 5 | -12 | 1.5 | . | -1.2 | -4.9
Cn1c(=O)[nH]c(=O)c2c1nc(N/N=C/C(Br)=C/c1ccccc1)n2CCO | ? | -6 | 6 | 9 | . | 23% | 0.7 | 1.6
